Mtb H37Rv: Confirmatory growth inhibition assay against Mycobacterium tuberculosis H37Rv, potency (AID 1949). 100,000 tested, 1.6% active. most inactive calls were filed without a number and no value below 0 was filed. inhibition, % at 10 µg/mL, or IC50 in µg/mL where a hit was titrated;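 active = confirmed in a dose series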;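 note: bacteria grown 7 days with compound before Alamar blue readout; 0% = untreated bacteria and 100% = reference antibiotic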
* marks the source's active call; other numbers are inactive results; i = inactive. These rows are one share of the data. The share of hits here may be higher or lower than overall.

SMILES | Mtb H37Rv
COc1ccc(OC)c(S(=O)(=O)N2c3ccccc3CC2C)c1 (stereo not drawn) | 2%
Cc1ccc(NC(=O)CCC2CCCC2)c(C)c1 | 7%
Cc1ccccc1C(=O)Nc1cccc(NC(=S)NC(=O)c2ccc3c(c2)OCCO3)c1 | 45%
O=C(CN1CCN(C(=O)c2ccco2)CC1)Nc1cc(Cl)ccc1Cl | i
COc1cc(NS(=O)(=O)c2ccc(C)c(C)c2)c(OC)cc1Cl | i
Cn1c(SCc2cccc(Br)c2)nnc1-c1ccc(N)cc1 | i
O=C(CCN1C(=O)c2ccccc2C1=O)Nc1nccs1 | i
CC1CCc2c(sc3ncnc(SCC#N)c23)C1 (stereo not drawn) | i
CC(NC(=O)CN(c1ccc(F)cc1)S(=O)(=O)c1ccc2c(c1)OCCO2)c1ccccc1 (stereo not drawn) | i
CCOc1cc(CNCCCN2CCOCC2)ccc1OCC(=O)NC1CCCCC1 | i
Cc1cc(I)cnc1NC(=O)C(C)(C)C | 7%
COc1ccc(-c2cn3cccnc3n2)cc1 | i
CCOC(=O)c1nc(Nc2cc(Cl)ccc2OC)c2ccccc2n1 | i
Cc1cccc(OC(=O)NCCOC(=O)Nc2cccc3ccccc23)c1 | i
O=C(Cc1ccc(F)cc1)Nc1nnc(C2CCCCC2)s1 | i
NC(=O)c1ccc(-c2ccccc2)cc1C(N)=O | i
Cc1onc(-c2c(F)cccc2Cl)c1C(=O)NC(=S)NC1CCS(=O)(=O)C1 (stereo not drawn) | i
CCc1ccc(NC(=O)COc2ccc(N3CC(C(=O)NCc4ccccc4)CC3=O)cc2)cc1 (stereo not drawn) | i
COc1ccc(C(=O)COc2ccccc2C(=O)Nc2ccccc2)cc1Br | i
O=C(Nc1ccc(I)cc1F)c1ccco1 | i
Cn1c(=O)c2c(ncn2CC(=O)NC2CCCCCCC2)n(C)c1=O | i
C=CCc1c(C)nc2sc(C(=O)Nc3ccc(Br)cc3)c(N)c2c1C | i
CC(C(=O)Nc1ccc(Br)c(Cl)c1)N1C(=O)C2C3C=CC(C3)C2C1=O (stereo not drawn) | i
Cc1c(NC(=S)NC(=O)CSc2ccc(Cl)cc2)cccc1C(=O)O | i
CCNC(=O)CCSc1ccccc1 | i

Overlap with the part before: 4 compounds; new compounds follow.
SMILES | Mtb H37Rv
C=CCc1c(C)nc2sc(C(=O)Nc3ccc(Br)cc3)c(N)c2c1C | i
CC(C(=O)Nc1ccc(Br)c(Cl)c1)N1C(=O)C2C3C=CC(C3)C2C1=O (stereo not drawn) | i
Cc1c(NC(=S)NC(=O)CSc2ccc(Cl)cc2)cccc1C(=O)O | i
CCNC(=O)CCSc1ccccc1 | i
COc1c(S(=O)(=O)N2CCN(c3cccc(Cl)c3)CC2)ccc(Cl)c1Cl | i
Cc1ccc(C(=O)NCc2nnc(SCC(=O)Nc3cccc(C)c3)n2C)cc1 | i
O=c1c2ccccc2nc(SCc2nnc(-c3ccccc3)o2)n1CCc1ccccc1 | i
O=C(CCN1C(=O)c2ccccc2C1=O)NC(=S)Nc1cccc(C(F)(F)F)c1 | i
O=C(CCc1ccccc1)Nc1ccccc1Cl | i
CCN(CC)C(=S)Nc1ccc(Cl)c(Cl)c1 | i
O=C(Cn1nnc(-c2ccc3c(c2)OCO3)n1)NCc1ccccc1 | 1%
O=C(CSc1ccccc1)Nc1nnc(COc2ccc(Cl)cc2)s1 | 32%
NC(=O)CSc1nnc(-c2ccncc2)n1-c1ccc(Br)cc1 | i
COc1cccc(OC)c1OCCCCN(C)Cc1ccccc1 | i
O=[N+]([O-])c1ccc(OCCCOc2ncnc3ccccc23)cc1 | i
COCc1cc(CN2CCCCC2)c(O)c2ncccc12 | i
CCCCCCN(CCCCCC)C(=S)Nc1ccc(OC)c(OC)c1 | i
CC(=O)Cc1nsc(NC(=O)c2ccc(-c3ccc(F)cc3)o2)n1 | 4%
CC(=O)CC1=NC(C)(C)Cc2ccccc21 | i
CC(C)Cc1ccc(-c2csc(NC(=O)COc3ccccc3)n2)cc1 | i
O=C(Cc1cccc2ccccc12)Nc1cccc2nsnc12 | i
COc1ccc(N(C(=O)c2ccco2)S(=O)(=O)c2ccccc2)cc1 | 6%
COc1ccc(CC(=O)Nc2ccc(O)cc2C(=O)O)cc1 | i
CCC(=O)c1ccc(OCC(O)CN(C)C2CCCCC2)cc1 (stereo not drawn) | i
CCOc1ccc(OCC)c(S(=O)(=O)N2CCN(c3cc(Cl)ccc3C)CC2)c1 | i
C=CCc1cc(OC)ccc1OCCCNCCN | i
Cc1ccc(S(N)(=O)=O)cc1NC(=O)C1CC2CCC1C2 (stereo not drawn) | i
CC1Cc2ccccc2N1S(=O)(=O)c1cccs1 (stereo not drawn) | i
O=C(Nc1ccc(S(=O)(=O)N2CCOCC2)cc1)C1CCCO1 (stereo not drawn) | i
(cont.)
SMILES | Mtb H37Rv
CCn1c(=S)[nH]c2scc(-c3ccccc3)c2c1=O | 11%
CC(C)(C)NS(=O)(=O)c1ccc(NC(=O)COc2ccc3ccccc3c2)cc1 | 13%
CCN(CC)C(=O)Cn1c([N+](=O)[O-])cnc1C | i
O=C(c1c(F)c(F)c(F)c(F)c1F)N1CCc2ccccc21 | 2%
Cc1c(C#N)sc2nc(-c3ccccc3)nc(N3CCN(Cc4ccccc4)CC3)c12 | i
Cc1c(NC(=O)CN(c2cccc(Br)c2)S(C)(=O)=O)c(=O)n(-c2ccccc2)n1C | i
CCOC(=O)C1=C(c2ccccc2)NC(=S)NC1c1ccc(C#N)cc1 (stereo not drawn) | i
O=S(=O)(/C=C/c1ccccc1)N1CCN(c2cccc(C(F)(F)F)c2)CC1 | i
O=C(Nc1nc(-c2ccc(Br)cc2)cs1)c1ccc(Cl)cc1 | 6%
O=C(Cc1cccs1)Nc1ccccc1-c1ccccc1 | i
Cc1nnc(Nc2ccc(C(=O)Nc3ccccc3)cc2)c2ccccc12 | 16%
Cc1cc(C)c(C#N)c(SCc2ccc([N+](=O)[O-])cc2)n1 | i
CCC(C)c1ccccc1NC(=S)NC(C)=O (stereo not drawn) | 2%
Cc1ccccc1C(=O)Nc1ccc(I)cc1C(C)C | 4%
CCc1ccc(-c2cc(C(=O)n3nnc4ccccc43)c3ccccc3n2)cc1 | 3%
O=C(Nc1c(F)cccc1F)C1CCN(S(=O)(=O)c2cc(Cl)ccc2Cl)CC1 | i
Cc1cc(C)nc(N2C(=O)CC(C(C)c3ccccc3)C2=O)n1 (stereo not drawn) | i
CCCC(=O)Nc1ccccc1NC(=O)c1ccccc1F | i
NC(=O)C1CCCN(C(=O)NC2CCCCC2)C1 (stereo not drawn) | i
COC(=O)C1CCN(C(=O)c2cccc(I)c2)CC1 | i
O=C(NN1CCCCC1)c1cccc2ccccc12 | 4%
Cc1cc(NC(=O)c2ccc(C)c([N+](=O)[O-])c2)c(C)cc1I | i
CC(Oc1ccc(Cl)cc1Cl)C(=O)NC(C)C1CC2CCC1C2 (stereo not drawn) | 9%
O=C(CSc1ccccc1)Nc1ccccc1C(=O)NCc1ccccc1 | i
CS(=O)(=O)Nc1ccccc1C(=O)NCCSCc1cccc(Cl)c1 | i

Not a retest: an excerpt of the list.
SMILES | Mtb H37Rv
CCn1c(=S)[nH]c2scc(-c3ccccc3)c2c1=O | 11%
CC(C)(C)NS(=O)(=O)c1ccc(NC(=O)COc2ccc3ccccc3c2)cc1 | 13%
CCN(CC)C(=O)Cn1c([N+](=O)[O-])cnc1C | i
O=C(c1c(F)c(F)c(F)c(F)c1F)N1CCc2ccccc21 | 2%
Cc1c(C#N)sc2nc(-c3ccccc3)nc(N3CCN(Cc4ccccc4)CC3)c12 | i
Cc1c(NC(=O)CN(c2cccc(Br)c2)S(C)(=O)=O)c(=O)n(-c2ccccc2)n1C | i

(next part)
SMILES | Mtb H37Rv
COc1ccc(N2CCN(S(=O)(=O)c3cccc(C)c3)CC2)cc1 | 4%
COc1cccc(NC(=S)NC(=O)COc2ccc(Br)cc2Cl)c1 | i
Cc1ccc(C2SCC(=O)Nc3c2c(C)nn3-c2ccccc2)cc1 (stereo not drawn) | 1%
Cc1ccccc1NC(=O)C1C2C3CCC(C3)C12 (stereo not drawn) | 3%
Cc1cccnc1NC(=O)Nc1ccc(Br)cc1Cl | i
COc1cc(C2c3c(oc4ccc(Br)cc4c3=O)C(=O)N2Cc2ccc(F)cc2)cc(OC)c1OC (stereo not drawn) | 2%
CC(C)Cc1ccc(-c2csc(NC(=O)c3ccccc3)n2)cc1 | 5%
Cc1nc2ccccn2c1/C(O)=C1\C(=O)C(=O)N(CCN(C)C)C1c1ccncc1 (stereo not drawn) | i
O=C(CS(=O)(=O)Cc1ccccc1)Nc1ccc(S(=O)(=O)Nc2nccs2)cc1 | i
CC(C)(C)c1ccccc1NC(=O)c1ccccc1Cl | i
O=C(CC1Sc2ccccc2NC1=O)Nc1ccc(OC(F)(F)C(F)Cl)cc1 (stereo not drawn) | 4%
NS(=O)(=O)c1ccc(CNC(=O)CCSc2ccccc2)cc1 | i
O=Cc1ccc(OCc2ccc(C(=O)O)cc2)c(Br)c1 | i
CCOC(=O)CSc1nnc(-c2ccccc2)n1-c1cccc(C)c1 | 48%
COc1ccc(NC(=O)c2cc3c(n(-c4ccc(Cl)cc4)c2=O)CCCC3=O)cc1 | 5%
CCc1cccc(CC)c1NC(=O)CSc1nnc(NC(C)=O)s1 | 0%
CCC1=NN2C(=N)/C(=C/c3ccc(OCc4ccccc4Cl)c(OC)c3)C(=O)N=C2S1 | 3%
CCS(=O)(=O)N1CCN(S(=O)(=O)c2ccc(OC)cc2)CC1 | i
CCOC(=O)CC1C(=O)NCCN1C(=O)COc1ccc(Br)cc1C (stereo not drawn) | i
N#Cc1c(NC(=O)C2CC(Cl)=CCC2C(=O)O)sc2c1CCC2 (stereo not drawn) | i
Cc1ccc(CN(CC(=O)NCc2ccncc2)S(=O)(=O)c2ccc(Cl)cc2)cc1 | i
Cc1cc(N2CCOCC2)c2c(N)cc(C)c(C)c2n1 | 2%
O=C1CCCC2=C1C(c1ccncc1)c1c(nc(SCc3ccccc3Cl)[nH]c1=O)N2 (stereo not drawn) | i
COc1ccccc1C(=O)Nc1sc(C)c(C)c1C(N)=O | 3%
CNC(=S)N1CCN(c2ccc(OC)cc2)CC1 | i
(listing goes on)
SMILES | Mtb H37Rv
COC(=O)c1ccccc1NC(=O)CN(c1ccccc1)S(=O)(=O)N(C)C | i
S=C(Nc1ccc(Br)cc1)NC1CCCC1 | i
CC1CCCCC1NC(=O)CSc1nnc(-c2ccc(Br)cc2)n1C (stereo not drawn) | i
COC(=O)c1ccc(N2C(=O)CC(NCc3cccs3)C2=O)cc1 (stereo not drawn) | i
CN1CCN(C(=O)c2ccccc2NC(=O)Nc2ccccc2)CC1 | i
O=C(CCC1CCCC1)Nc1ccccc1Oc1ccccc1 | i
COc1ccc(C(=O)CN2CCN(C(=O)c3ccco3)CC2)cc1 | i
O=C(COc1ccc(-c2ccccc2)cc1)Nc1ccc(Cl)cc1 | i
Cc1ccccc1CN(c1ccc(C(=O)NC2CCCC2)cc1)S(C)(=O)=O | i
COc1ccc(S(=O)(=O)N2CCCCC2)cc1-c1nnc2c3ccccc3c(C)nn12 | i
CCn1c(=O)[nH]c2cc(C(=O)N3CCN(c4ccccc4)CC3)ccc2c1=O | i
CC(C)(C)NC(=O)c1cccc(NC(=O)CSc2ccccc2)c1 | i
OCCNCc1cc(Br)ccc1OCc1ccc(Cl)cc1 | 30%
COc1ccc(NC(=S)NC(=O)c2ccc(C)c(I)c2)cc1 | 4%
CN=C(NS(=O)(=O)c1ccc(Br)cc1)c1ccc(Cl)cc1 | i
CC(=O)c1cccc(NS(=O)(=O)c2ccc(O)c(C(N)=O)c2)c1 | i
O=[N+]([O-])c1ccc(NCCNCc2cccnc2)cc1 | i
Cc1onc(-c2ccccc2)c1C(=O)N1CCCC1 | i
Cc1cc(Cl)ccc1NC(=O)CSc1nnc(-c2ccc(Br)cc2)n1C | i
O=C(Nc1ccc(F)c(Cl)c1)c1ccc(C(=O)Nc2ccc(F)c(Cl)c2)nc1 | i
COc1ccc(C(C)NC(=O)Nc2ccccc2C(F)(F)F)cc1OC (stereo not drawn) | i
COc1ccc(NC(=O)Nc2nccs2)cc1 | i
CSc1ccccc1NS(=O)(=O)c1ccc(NC(C)=O)cc1 | i
CCOc1ccccc1NC(=O)COc1ccc(Br)cc1C(C)(C)C | 3%
Clc1ccc(OCc2nc(-c3ccccn3)no2)c(Br)c1 | i

Rewritten field by field: two of the compounds above
> OCCNCc1cc(Br)ccc1OCc1ccc(Cl)cc1
- Mtb H37Rv: 30%

> COc1ccc(NC(=S)NC(=O)c2ccc(C)c(I)c2)cc1
- Mtb H37Rv: 4%

(cont.)
SMILES | Mtb H37Rv
Cc1ccc(-c2c(C(=O)NNC(=S)NCC3CCCO3)csc2C)cc1 (stereo not drawn) | i
CCC(=O)Nc1ccc(C(=O)Nc2cc([N+](=O)[O-])ccc2OC)cc1 | 1%
COCc1nnc(NC(=O)CS(=O)(=O)c2ccccc2)s1 | 0%
Cc1ccc(-c2nc3s/c(=C/c4ccc(C(C)C)cc4)c(=O)n3n2)cc1 | i
O=C(CSc1n[nH]c(-c2ccco2)n1)Nc1ccc(Cl)cc1Cl | i
CCC(COC(=O)Nc1cccc(C)c1C)NC(=O)OCC(C)C (stereo not drawn) | 1%
C=CCNCCOCCOc1ccc(C(C)C)c(C)c1 | i
CCc1ccccc1OCC(=O)NCCc1ccc(OC)c(OC)c1 | 8%
Cc1ccc(C(=O)C2=C(O)C(=O)N(CCN(C)C)C2c2ccccn2)o1 (stereo not drawn) | i
CC1(C)CC(=O)c2c(oc3ccc(NS(=O)(=O)c4ccc(F)cc4)cc23)C1 | 3%
O=C(c1cccs1)N1CCC2(CC1)OCCO2 | i
